PD-1 reverse act – activators reversing PD-1 mediated T-cell inhibition, primary screen, luminescence, primary human CD4 T cells, PD-L1 beads; AID 2316, 2010; activation, % (test concentration not listed); 29,000 tested, under 10 active; CellTiter-Glo 96 h;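 active = replicate mean of 50% or more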;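 also: 0% = median vehicle wells and 100% = positive control; 100 nL library stock added to about 50 µL; numbers are from one replicate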
YB-1 expression – inhibitors of YB-1 gene expression, primary screen, cell-based, fluorescence; U2OS, qRT-PCR YB-1 vs CDIP delta delta Cp, 16 h; hits give high values; zero = DMSO, each unit about twofold; delta delta Cp (YB-1 minus CDIP) (concentration not given with the values); 30,000 compounds, 0.37% hits;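 active = delta delta Cp rounded down to an integer at or above 3, about 3 SD of DMSO wells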;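 also: higher means less YB-1 transcript or more CDIP transcript relative to DMSO; stock transfer was 100 nL into about 100 µL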
Shh pathway inh – Hedgehog pathway signaling inhibitors, primary screen, luminescence, Shh-LIGHT2 cells, Gli-luciferase. Shh-LIGHT2 Gli-luciferase reporter, 30 h. inhibition, % (no concentration beside the values). 22,000 compounds, 2.1% hits. AID 2313, 2010;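 active = replicate mean of 65% or more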;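 also: pathway switched on by Shh-conditioned medium diluted 1 in 25 in low serum; 100 nL library stock added to about 40 µL; 0% = median of neutral wells and 100% = positive control level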
MITF inh – inhibitors of MITF, primary screen, MITF inhibitor project, cell-based, luminescence; AID 2240, 2010; TRPM1 promoter luciferase, 24 h; inhibition, % (no concentration beside the values); 37,000 compounds, 0.28% hits;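 active = most replicates at 85% or more, or half of them and the mean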;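 also: human melanocyte line stably carrying TRPM1 promoter luciferase reporter; 0% = vehicle wells and 100% = a positive control; the first replicate is given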
Numbers without * were called inactive; · = not tested or not shown. An excerpt; rates above refer to the full screens.

SMILES	PD-1 reverse act	YB-1 expression	Shh pathway inh	MITF inh
C[C@H]1O[C@@H](O[C@H]2[C@@H](O)C[C@H](O[C@H]3[C@@H](O)C[C@H](O[C@H]4CC[C@@]5(C)[C@H](CC[C@@H]6[C@@H]5C[C@@H](O)[C@]5(C)[C@@H](C7=CC(=O)OC7)CC[C@]65O)C4)O[C@@H]3C)O[C@@H]2C)C[C@H](O)[C@@H]1O	·	0.23	-20.0	44.6
O=C(CSc1nnc(-c2ccc([N+](=O)[O-])cc2)n1-c1ccccc1)N1CCOCC1	0.7	·	·	-10.6
C[C@@H]1CN([C@@H](C)CO)C(=O)c2cccc(N(C)C)c2O[C@@H]1CN(C)Cc1ccc(Cl)c(Cl)c1	·	-0.164	-40.4	-0.2
COc1ccc(-c2ccc(CCC(=O)O)n2-c2ccc(C(=O)O)cc2)cc1	0.5	·	·	-20.0
COc1ccc(S(=O)(=O)Nc2ccc3c(c2)CC(=O)N([C@H](C)CO)C[C@@H](C)[C@H](CN(C)S(=O)(=O)c2ccccc2)O3)cc1	·	0.246	15.5	4.1
C[C@H]1CC(=O)C2=C(C1)C(O)C(O)[C@@]1(O)[C@H]2C(=O)c2cccc(O)c2[C@@H]1O (stereo partly drawn)	2.0	0.382	-11.6	6.6
CC1(C)CC[C@]2(C(=O)O)CC[C@]3(C)C(=CCC4[C@@]5(C)C[C@@H](O)[C@H](O)[C@@](C)(CO)C5CC[C@]43C)C2C1 (stereo partly drawn)	·	0.402	-17.1	·
C[C@@H]1CN([C@@H](C)CO)C(=O)c2cc(NC(=O)Nc3ccc(C(F)(F)F)cc3)ccc2O[C@@H]1CN(C)Cc1ccc(Cl)c(Cl)c1	0.7	0.441	-7.9	18.1
COC(=O)c1ccccc1NC(=O)C(C)Oc1ccccc1F (stereo not drawn)	3.0	·	·	3.3
C[C@@H]1CN([C@H](C)CO)C(=O)c2cc(NC(=O)C3CCCCC3)ccc2O[C@@H]1CN(C)C(=O)Nc1ccc(F)cc1	·	0.309	12.9	-9.8
Cc1ccc(S(=O)(=O)N(C)C[C@H]2Oc3ccc(NC(=O)c4ccncc4)cc3C(=O)N([C@@H](C)CO)C[C@@H]2C)cc1	0.4	0.362	-10.7	0.6
CC(C)NC(=O)Nc1ccc2c(c1)C(=O)N([C@@H](C)CO)C[C@@H](C)[C@H](CN(C)Cc1ccc(-c3ccccc3)cc1)O2	0.0	0.0684	-4.3	3.4
Cc1noc(C)c1NC(=O)Nc1ccc2c(c1)C(=O)N([C@H](C)CO)C[C@H](C)[C@H](CN(C)Cc1ccncc1)O2	0.7	0.00686	-5.9	3.9
Cn1c(SCC(=O)Nc2cccc(Br)c2)nnc1-c1ccc(Cl)cc1	0.2	·	·	2.6
CC12CC3(C)CC(C)(C1)CC(CN=Cc1ccc(O)cc1)(C2)C3	-2.4	-0.159	24.1	-2.9
C[C@@H]1CN([C@H](C)CO)C(=O)Cc2cc(NC(=O)Cc3cn(C)c4ccccc34)ccc2O[C@H]1CN(C)Cc1ccc(C(=O)Nc2ccccc2N)cc1	-1.0	-0.22	·	14.2
C[C@@H]1CN([C@@H](C)CO)C(=O)c2cccc(NC(=O)CCCCCC(=O)Nc3ccccc3N)c2O[C@H]1CN(C)Cc1ccc2c(c1)OCO2	-1.0	-0.359	·	55.3
Cn1c(SCC(=O)Nc2ccc(Cl)cc2Cl)nnc1C12CC3CC(CC(C3)C1)C2	-1.6	·	·	16.9
COc1ccc([N+](=O)[O-])cc1N(CC(=O)N1CCOCC1)S(C)(=O)=O	2.2	·	·	-4.5
C[C@H](CO)N1C[C@H](C)[C@H](CN(C)C(=O)Nc2ccc(C(F)(F)F)cc2)Oc2ccc(NC(=O)Nc3ccc(C(F)(F)F)cc3)cc2C1=O	-1.5	-0.0742	-18.1	-6.7
Cc1nn(CC(O)COc2ccc(C(=O)c3ccccc3)cc2)c(C)c1Br (stereo not drawn)	0.2	·	·	17.7
C[C@@H]1CN([C@@H](C)CO)C(=O)c2cc(NS(=O)(=O)c3cccs3)ccc2O[C@@H]1CN(C)C(=O)Nc1ccccc1	-1.1	-0.0952	5.9	-4.9
C[C@H]1CN([C@@H](C)CO)C(=O)c2cccc(NS(=O)(=O)c3ccc(Cl)cc3)c2O[C@H]1CN(C)C(=O)Nc1ccc(C(F)(F)F)cc1	-4.1	-0.257	12.9	34.6
C[C@@H]1CCCCO[C@H](CN(C)Cc2ccc(C(F)(F)F)cc2)[C@@H](C)CN([C@H](C)CO)C(=O)c2cc(NC(=O)Nc3cccc4ccccc34)ccc2O1	2.1	0.0751	1.9	9.7
Cc1c(Cl)cccc1N(CC(=O)O)S(=O)(=O)c1ccccc1	1.2	·	·	-6.3

(further entries)
Every second line gives: PD-1 reverse act	YB-1 expression	Shh pathway inh	MITF inh
- COc1ccccc1NC(=O)C(C)NS(=O)(=O)c1ccc(F)cc1 (stereo not drawn)
→ -5.6	·	·	1.6
- Cc1noc(C)c1NC(=O)N(C)C[C@H]1Oc2ccc(NC(=O)CCCN(C)C)cc2C(=O)N([C@H](C)CO)C[C@H]1C
→ 1.3	-0.114	-14.9	3.6
- C[C@H]1CN([C@@H](C)CO)C(=O)c2cccc(NS(=O)(=O)c3cn(C)cn3)c2O[C@H]1CN(C)S(=O)(=O)c1cccs1
→ 3.4	-0.128	13.7	-13.2
- C[C@H]1CN([C@@H](C)CO)C(=O)Cc2cc(NC(=O)Nc3ccc(C(F)(F)F)cc3)ccc2O[C@@H]1CN(C)C(=O)Nc1ccc2c(c1)OCO2
→ -1.3	0.0433	-3.2	-1.1
- CC(C)NC(=O)N(C)C[C@H]1Oc2ccc(NC(=O)Nc3ccc(F)cc3)cc2CC(=O)N([C@H](C)CO)C[C@H]1C
→ 0.3	-0.143	6.8	4.3
- COc1ccc(NC(=O)N(C)C[C@@H]2Oc3c(NC(=O)c4nc5ccccc5s4)cccc3C(=O)N([C@@H](C)CO)C[C@H]2C)cc1
→ -1.2	-0.376	-5.4	3.9
- Cc1cc(=O)[nH]c(SCCCOc2ccccc2Cl)n1
→ 1.5	·	·	-12.7
- COC(=O)C1=C(Nc2ccc(F)cc2F)CSC1
→ -0.8	-0.188	-0.9	-26.7
- CNC[C@H]1Oc2ccc(NC(=O)Nc3cccc4ccccc34)cc2CC(=O)N([C@@H](C)CO)C[C@@H]1C
→ -0.5	-0.384	-30.3	1.4
- Cc1ccc(C(=O)Nc2ccc(OCC(=O)O)cc2)cc1C
→ 1.6	·	·	40.4
- O=C(c1ccccc1)N(C(=O)c1ccccc1)C(=O)c1ccccc1
→ -3.5	-0.0942	19.3	3.1
- COc1ccc(S(=O)(=O)Nc2ccc3c(c2)CC(=O)N([C@H](C)CO)C[C@@H](C)[C@@H](CN(C)Cc2ccc4c(c2)OCO4)O3)cc1
→ 0.0	0.108	1.9	0.7
- C[C@H](CO)N1C[C@H](C)[C@H](CN(C)S(=O)(=O)c2cn(C)cn2)Oc2ccc(NC(=O)CCCCCC(=O)Nc3ccccc3N)cc2CC1=O
→ 0.8	0.0627	·	-22.3
- C[C@@H]1CN([C@@H](C)CO)C(=O)c2cccc(NC(=O)Nc3ccc4c(c3)OCO4)c2O[C@@H]1CN(C)S(=O)(=O)c1cn(C)cn1
→ ·	0.514	16.8	-9.0
- CNC[C@@H]1OCCCC[C@@H](C)Oc2ccc(NS(=O)(=O)c3ccccc3)cc2C(=O)N([C@H](C)CO)C[C@@H]1C
→ 0.8	0.56	·	-2.8

A stretch of the results above:
Every second line gives: PD-1 reverse act	YB-1 expression	Shh pathway inh	MITF inh
- Cc1ccc(C(=O)Nc2ccc(OCC(=O)O)cc2)cc1C
→ 1.6	·	·	40.4
- O=C(c1ccccc1)N(C(=O)c1ccccc1)C(=O)c1ccccc1
→ -3.5	-0.0942	19.3	3.1
- COc1ccc(S(=O)(=O)Nc2ccc3c(c2)CC(=O)N([C@H](C)CO)C[C@@H](C)[C@@H](CN(C)Cc2ccc4c(c2)OCO4)O3)cc1
→ 0.0	0.108	1.9	0.7

Following part
Every second line gives: PD-1 reverse act	YB-1 expression	Shh pathway inh	MITF inh
- C[C@@H]1CN([C@H](C)CO)C(=O)c2cccc(NC(=O)C3CC3)c2O[C@@H]1CN(C)S(=O)(=O)c1ccc(F)cc1
→ -2.9	0.48	3.4	-4.8
- C=C1C(=O)O[C@H]2[C@H]1[C@@H](OC(=O)C(C)(O)C(C)Cl)C(OC(C)=O)/C(C(=O)OC)=C\CC[C@@]1(C)O[C@H]21 (stereo partly drawn)
→ -9.7	0.831	73.0*	-9.5
- COc1ccc(C(C)C(=O)c2ccc(O)cc2O)cc1O (stereo not drawn)
→ -2.7	0.257	1.3	-36.4
- C[C@@H]1CN([C@H](C)CO)C(=O)Cc2cc(NS(=O)(=O)c3ccc(Cl)cc3)ccc2O[C@@H]1CN(C)Cc1ccc(Oc2ccccc2)cc1
→ 0.5	0.583	34.4	-5.4
- Cc1ccc(S(=O)(=O)Nc2ccc3c(c2)C(=O)N([C@@H](C)CO)C[C@@H](C)[C@@H](CN(C)C(=O)Nc2cccc4ccccc24)O3)cc1
→ 1.6	-0.571	-1.8	-9.2
- C[C@@H]1CN([C@H](C)CO)C(=O)Cc2cc(NC(=O)Cn3cnnn3)ccc2O[C@@H]1CN(C)CC1CCCCC1
→ 0.1	-0.139	-11.0	-7.7
- COc1ccc(NC(=O)N(C)C[C@H]2Oc3ccc(NS(=O)(=O)c4cccs4)cc3CC(=O)N([C@@H](C)CO)C[C@H]2C)cc1
→ 0.0	0.142	·	-2.6
- C[C@H]1CN([C@@H](C)CO)C(=O)c2cccc(NC(=O)c3cnccn3)c2O[C@@H]1CN(C)C(=O)Nc1ccc2c(c1)OCO2
→ 0.6	-0.00426	-6.7	-5.6
- O=C(Cn1c2ccccc2n2nc(-c3cccs3)nc12)c1ccc(Cl)cc1
→ -14.1	·	·	6.7
- C[C@@H]1CN([C@H](C)CO)C(=O)c2cc(NS(C)(=O)=O)ccc2O[C@H]1CN(C)S(=O)(=O)c1cn(C)cn1
→ -0.4	0.361	·	-2.5
- N=C(N)c1cc(C(F)(F)F)cc(C(F)(F)F)c1
→ 1.3	-0.269	-12.8	11.1
- C[C@@H]1CN([C@H](C)CO)C(=O)c2cccc(NC(=O)c3ccc(-c4nccs4)cc3)c2O[C@@H]1CN(C)Cc1ccc(C(=O)Nc2ccccc2N)cc1
→ -3.9	-0.459	·	58.0
- CC(C(=O)Nc1cccnc1)N(c1ccc(Oc2ccccc2)cc1)S(C)(=O)=O (stereo not drawn)
→ -0.1	·	·	-0.6
- Cc1noc(C)c1NC(=O)Nc1ccc2c(c1)C(=O)N([C@@H](C)CO)C[C@H](C)[C@H](CN(C)C(=O)NC1CCCCC1)O2
→ 1.4	-0.14	-29.9	2.9
- C[C@@H]1CN([C@H](C)CO)C(=O)Cc2cc(NC(=O)c3ccncc3)ccc2O[C@H]1CN(C)S(=O)(=O)c1ccc(F)cc1
→ 3.0	0.0154	7.8	-4.9
- Cc1cc(NC(=O)C2C(=O)c3ccccc3S(=O)(=O)N2C)no1 (stereo not drawn)
→ ·	0.301	-26.0	-8.2
- C[C@H]1CN([C@@H](C)CO)C(=O)c2cc(NC(=O)Cc3ccccc3)ccc2O[C@@H]1CN(C)Cc1ccc(C(F)(F)F)cc1
→ 1.4	-0.535	·	16.2
- C[C@H](CO)N1C[C@H](C)[C@@H](CN(C)Cc2ccncc2)Oc2ccc(NC(=O)Cc3ccccc3)cc2C1=O
→ 0.0	-0.128	-4.0	-3.8
- COc1ccc(NC(=O)Nc2cccc3c2O[C@@H](CN(C)S(=O)(=O)c2ccc(Cl)cc2)[C@H](C)CN([C@H](C)CO)C3=O)cc1
→ 1.2	-0.375	-12.1	-0.5
- COc1ccc(S(=O)(=O)N(C)C[C@H]2Oc3c(NS(=O)(=O)c4cn(C)cn4)cccc3C(=O)N([C@@H](C)CO)C[C@@H]2C)cc1
→ 0.3	0.257	-21.5	-2.9
- Cc1cc(C)c(C(=O)CSc2nc(C)cc(=O)[nH]2)c(C)c1
→ 1.2	·	·	-9.0

By substructure: the entries above containing a nitro group on carbon (two)
Every second line gives: PD-1 reverse act	YB-1 expression	Shh pathway inh	MITF inh
- O=C(CSc1nnc(-c2ccc([N+](=O)[O-])cc2)n1-c1ccccc1)N1CCOCC1
→ 0.7	·	·	-10.6
- COc1ccc([N+](=O)[O-])cc1N(CC(=O)N1CCOCC1)S(C)(=O)=O
→ 2.2	·	·	-4.5
